Vif TR-FRET – inhibitors of Vif binding to APOBEC3G peptide, primary screen, biochemical, TR-FRET, GST-Vif 1-94, biotin-A3G peptide, dose response retest (AID 1117319). Virion infectivity factor (Human immunodeficiency virus type 1 group M subtype B (isolate …. TR-FRET GST-Vif / biotin-A3G peptide binding; higher % means a stronger effect; test concentration not given here; strong numbers were not always called active. 0.57% of 260,000 active. inhibition, %; hits with a dose series show IC50 in µM;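 active means above the screen mean plus three standard deviations and confirmed in dose response; inconclusive means results disagree or hit not tested in dose response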;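 further: Vif residues 1-94 fused to GST binding biotinylated APOBEC3G peptide 110-148; 0% = full assay without inhibitor and 100% = GST in place of GST-Vif; retest series ran down from 100 µM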
FGF22 binding – binders of human FGF22 protein, primary screen, FGF22 synaptogenesis inhibitor project, biophysical, thermal shift, single point | Fibroblast growth factor 22 (Homo sapiens), Q9HCT0 | recombinant FGF22 thermal shift, SYPRO orange fluorescence; percent of sucrose octasulfate shift, DMSO zero | calls only at 9.99 µM | 1.5% of 340,000 active | AID 651658, 2012;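 active means melting point raised past a set limit in the mean and every replicate; inconclusive means no clear call; three in four hits are not shown here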
Target sequence (Q9HCT0 whole entry, looked up): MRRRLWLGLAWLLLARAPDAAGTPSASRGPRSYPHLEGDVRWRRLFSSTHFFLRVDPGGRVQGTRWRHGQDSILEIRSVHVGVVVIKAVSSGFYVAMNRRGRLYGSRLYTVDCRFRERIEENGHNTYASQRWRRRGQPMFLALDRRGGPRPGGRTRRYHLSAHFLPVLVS
RanGTP-Impb inh – inhibitors of RanGTP-importin-beta interaction, primary screen, biochemical, FRET, CFP-Ran, YFP-importin-beta, homogeneous | Ran GTPase (GTP-bound) - importin-beta complex | cell-free CFP-Ran/YFP-importin-beta FRET ratio | inhibition, % (no concentration beside the values) | 1.1% of 300,000 active | AID 2216, 2009;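 active means most replicates above 15%; inconclusive means exactly half above 15%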;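 further: 0% = DMSO wells and 100% = Ran loaded with GDP instead of GTP; wells of about 40 µL received 100 nL stock; the first replicate is given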
UCH37 DUB inh – inhibitors of human UCH37 deubiquitinase, primary screen, biochemical, Ub-AMC cleavage, fluorescence | purified proteasome/UCH37 | 0.33% of 330,000 active | inhibition, % (concentration not given with the values) | Ubiquitin carboxyl-terminal hydrolase isozyme L5 (Homo sapiens), Q9Y5K5 | AID 588478, 2011;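 active means mean of two replicates above 20%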;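 further: 0% = compound-free wells with enzyme and 100% = wells lacking proteasome; stock transfer was 100 nL into about 20 µL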
Target sequence (Q9Y5K5 whole entry, looked up): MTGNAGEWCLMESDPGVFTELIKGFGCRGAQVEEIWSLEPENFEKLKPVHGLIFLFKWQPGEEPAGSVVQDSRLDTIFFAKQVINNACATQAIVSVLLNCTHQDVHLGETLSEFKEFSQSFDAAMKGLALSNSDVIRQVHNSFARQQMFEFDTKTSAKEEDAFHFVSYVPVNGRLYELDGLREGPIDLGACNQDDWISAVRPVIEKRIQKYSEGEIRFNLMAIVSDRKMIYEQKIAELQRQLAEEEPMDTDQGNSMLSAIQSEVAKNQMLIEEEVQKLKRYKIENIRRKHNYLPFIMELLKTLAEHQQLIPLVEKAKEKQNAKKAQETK
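Reagent: Ub-AMC substrate; assay system: Proteasome-associated human UCH37 deubiquitinase; controls: no-proteasome and no-compound wells; read-out: % inhibition of Ub-AMC cleavage fluorescence; timing: 30 min preincubation with enzyme, 25 min cleavage at room temperature; signal: AMC fluorescence from Ub-AMC cleavage, excitation 355 nm, emission 460 nm; buffer or medium: Tris-HCl pH 7.4 plus ovalbumin, ATP-MgCl2, DTT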
HNF4A DNA FP – change in binding of human HNF4A to DNA, primary screen, biochemical, fluorescence polarization, FITC-DNA; 1 h; activity change, % at 10 µM; 0.3% of 360,000 active; AID 1224865, 2016; in the data active means activity change above about 30%, passing the limit was not always enough;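 further: controls were the assay level and a saturating level of protein; the project sought stronger binding though the title names inhibitors; some compounds called inactive have numbers as strong as hits; positive values seem to mean higher polarization but the record does not say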
Target sequence (P41235 whole entry, looked up): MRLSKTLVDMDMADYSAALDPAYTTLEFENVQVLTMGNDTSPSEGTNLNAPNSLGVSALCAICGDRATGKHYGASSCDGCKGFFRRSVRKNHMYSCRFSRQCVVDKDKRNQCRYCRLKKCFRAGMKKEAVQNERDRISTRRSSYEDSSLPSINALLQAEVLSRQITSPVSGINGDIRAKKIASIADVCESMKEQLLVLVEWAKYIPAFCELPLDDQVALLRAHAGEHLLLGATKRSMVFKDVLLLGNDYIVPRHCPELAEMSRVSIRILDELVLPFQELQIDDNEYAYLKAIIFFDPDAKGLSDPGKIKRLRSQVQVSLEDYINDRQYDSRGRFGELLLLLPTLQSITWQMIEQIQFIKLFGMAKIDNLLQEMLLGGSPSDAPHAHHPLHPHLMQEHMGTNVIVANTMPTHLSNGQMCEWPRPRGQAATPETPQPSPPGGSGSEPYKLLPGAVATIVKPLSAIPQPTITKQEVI
E coli growth – E. coli growth inhibition, primary screen, OD600. Escherichia coli growth, 23 h; active compounds read low. OD600 absorbance (concentration not given with the values). 0.21% of 330,000 active;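 active means OD600 absorbance below the run mean of sample wells minus 3.6 SD, in any replicate, cut at about 0.56 in these data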;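 further: stock transfer was 300 nL into about 60 µL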
MLL AF4-AF9 inh – inhibitors of AF4 peptide binding to AF9, primary screen, biochemical, AlphaScreen, biotin-AF4 peptide, FLAG-AF9, single point; inhibition, % at 10 µM; 0.47% of 350,000 active; AID 651704, 2012;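 active means every replicate reaching a set inhibition limit, whatever the replicate mean, cut at about 25% in these data; inconclusive means mean inhibition reaches that limit but some replicates miss it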;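 further: 0% = plate neutral control median and 100% = total signal loss; the record names both 10 and 1 µM as test concentration; the first replicate is given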
Starred values were filed as active, the others as inactive; i = inactive; u = inconclusive; x = not tested or not shown; & = joins results of further samples.

SMILES	Vif TR-FRET	FGF22 binding	RanGTP-Impb inh	UCH37 DUB inh	HNF4A DNA FP	E coli growth	MLL AF4-AF9 inh
Cc1cc(C)n(CCCNC(=O)C2CC(=O)N(Cc3ccccc3)C2)n1 (stereo not given)	1.1%	i	-4.9	0.4	2.3	0.686	-0.7
N#CCCn1ccc(NC(=O)c2ccc(Cl)cc2)n1	-3.0%	x	2.4	-4.2	-2.9	0.672	x
O=C(O)C12CC3CC(C1)CC(n1ncc(NCc4ccccc4)c(Cl)c1=O)(C3)C2	-7.9%	i	-2.9	6.9	-0.2	0.687	-0.9
O=S(=O)(NCCc1ccccc1)c1ccc(Br)cc1	x	i	-0.5	2.0	-3.7	0.698	-12.3
COc1ccc(S(=O)(=O)N2CC(C)N(C(=O)N(C)C)C2C)cc1 (stereo not given)	x	i	0.9	2.0	3.9	0.649	-2.6
Cc1ccc(C(=O)Nc2ccc(N3CCN(C)CC3)cc2)c(Cl)c1	x	i	5.3	1.7	2.9	0.666	-3.2
O=C(Nc1ccc2oc(-c3ccccc3)nc2c1)c1ccc2c(c1)OCCO2	-6.0%	x	2.8	-47.6	1.9	0.711	x
CC(=O)Nc1ccc(NC(=O)Cc2ccc(F)cc2)cc1	-12.6%	x	0.6	1.0	x	0.642	x
O=C(Cc1ccc(NC(=O)C2CCN(C(=O)C3CC3)CC2)cc1)Nc1ccc(C(=O)N2CCOCC2)cc1	x	i	x	0.5	0.4	0.672	3.4
CC(C)(C)C(=O)N1c2ccccc2CCc2ccccc21	x	i	-0.1	6.1	1.8	0.657	-1.4
CN(C)CCCNC(=O)Cc1ccc(Br)cc1	27.8%	x	u	1.2	-2.0	0.641	x
Nc1nc(Cl)cc(N2CCC(c3cc(-c4ccc(Cl)cc4Cl)n[nH]3)CC2)n1	80.0%	x	u	-1.0	4.4	0.701	x
CCOC(=O)c1cccc(NC(=O)Cn2c(CC(=O)N3CCCC3)nc3ccccc32)c1	u	x	3.6	1.4	x	0.628	x
CCc1c(C(=O)Nc2ccccc2)c(C)[nH]c(=S)c1C#N	7.4%	x	4.1	4.1	2.0	0.676	1.5
O=C(Nc1nc(OCCN2CCCC2=O)cnc1/C=C\c1ccccc1)c1cc2ccccc2s1	x	i	x	x	3.4	x	5.8
CCOc1ccc(NS(=O)(=O)c2ccc(NC(=O)[C@@H]3CCCC[C@@H]3C(=O)O)cc2)cc1	2.7%	x	1.7	0.9	2.5	0.735	x
CCOc1ccc(C(=O)Nc2cnn(Cc3ccc(Cl)c(Cl)c3)c2)cc1	3.1%	i	4.9	-2.1	4.7	0.689	-2.7
COc1cc(/C=C/CN2CCC(Oc3ccc(C(=O)N4CCCC4)cc3)CC2)ccc1O	x	i	-3.4	1.1	0.4	0.699	3.2
CCN(C(=O)CN1C(=O)S/C(=C\c2cccc(OC)c2)C1=O)C1CCS(=O)(=O)C1 (stereo not given)	x	i	2.8	3.6	1.8	0.7	5.3
COc1cc(NC(=O)c2cc3ccccc3o2)c(OC)cc1Cl	-5.6%	x	2.8	-63.7	-2.6	0.799	x
O=C1CSC(c2cccnc2)N1c1ccc(F)cc1 (stereo not given)	23.6%	x	-4.3	2.8	0.9	0.704	x
Cc1cc(C)n(CC(=O)NCc2cc(-c3nn(C)c(=O)c4ccccc34)ccc2C)n1	-3.8%	x	3.7	-3.3	3.8	0.76	x
COc1ccccc1N1CCN(CC(=O)Nc2cc(F)ccc2C)CC1	-5.2%	x	0.9	4.7	1.0	0.735	x
O=C(NNC1=C(C(=O)C(F)(F)F)CCC1)c1ccccc1O	9.0%	x	u	0.0	-3.9	0.717	x
CC(=O)NCC(=O)N[C@@H](CC(=O)OCc1ccccc1)C(=O)OCc1ccccc1	9.5%	i	-0.9	4.6	-0.5	0.651	-1.4
Cc1cnc(CNC(=O)C2CCC(=O)N(CCc3ccc(Cl)cc3)C2)cn1 (stereo not given)	8.1%	i	2.7	5.3	-2.5	0.645	-5.1
Cc1ccc(C#N)c(SCc2cccc(Br)c2)n1	x	i	-2.3	8.1	2.9	0.625	-0.6
Cc1ccc([N+](=O)[O-])c(NC(=O)COC(=O)C2CC3CCCC(C2)C3=O)c1C (stereo not given)	x	i	0.1	0.3	6.0	0.7	-2.5
COc1cc(C)c(Cl)cc1S(=O)(=O)N1CCCC1	10.3%	i	1.8	5.3	-0.6	0.629	0.2
COc1ccc(N2CC(NC(=O)N(C)CCC#N)CC2=O)cc1 (stereo not given)	27.5%	x	1.1	2.7	-4.5	0.657	2.0
Cc1noc(NS(=O)(=O)c2ccc(NC(=O)CCN3C(=O)c4ccccc4C3=O)cc2)c1C	-0.7%	i	0.5	2.3	0.6	0.707	-0.7
Nc1nnc(CC(c2ccccc2)c2ccccc2)s1	-0.4%	x	1.0	2.8	1.1	0.701	x
CN(CC(=O)Nc1ccc(Cl)c(Cl)c1)C(=O)C1CCCC1	1.4%	i	x	1.1	2.1	0.652	2.8
CC(CC(=O)NNC(=O)c1cccc(Cl)c1)c1ccccc1 (stereo not given)	x	i	3.4	x	0.3	x	-2.3
CC(C)c1ccc(S(=O)(=O)NC2CCS(=O)(=O)C2)cc1 (stereo not given)	-1.4%	i	-1.0	1.1	-0.8	0.564	1.3
O=C(O)C(Cc1ccccc1)N1C(=O)/C(=C/c2ccccc2)SC1=S (stereo not given)	-5.3%	x	0.9	14.3	0.4	0.656	x
CCOC(=O)c1ccc(NC(=S)NCCc2ccc(OC)c(OC)c2)cc1	u	i	1.1	4.9	0.6	0.682	x
O=C(NCCC1CCCCN1S(=O)(=O)c1ccc(F)cc1)C(=O)NCCN1CCOCC1 (stereo not given)	x	x	-0.1	-2.0	0.6	0.699	-2.3
COC(=O)c1ccc(COc2ccc3ccc(=O)oc3c2)o1	-3.6%	i	1.8	-45.5	5.0	0.667	-1.2
Cc1cccc(-c2noc(CSc3ccccc3)n2)c1	-4.9%	x	11.6	2.2	-1.0	0.732	x
CC(C)CN1Cc2ccccc2Oc2cc(Br)ccc2S1(=O)=O	2.5%	i	x	3.1	1.8	0.732	0.6
CC1CCN(c2ccc(S(=O)(=O)NC3=NCCCCC3)cc2[N+](=O)[O-])CC1	2.3%	i	1.7	5.1	-1.1	0.685	7.5
Cc1cc(C(=O)N2CCC2(C)C(=O)O)nn1C(C)(C)C (stereo not given)	x	i	x	x	1.0	x	2.2
COc1ccc(OCC(=O)c2c[nH]c3ccccc23)cc1	0.4%	x	0.8	4.1	2.5	0.722	-1.1
CCOc1cccc2sc(Cl)nc12	5.2%	i	-1.1	-0.1	-3.3	0.736	-0.3
Cc1c(C=O)cnn1CCC(=O)O	x	x	22.7*	2.4	-0.5	0.662	x
Cc1c(C)n(C(=O)CSc2nc3ccccc3[nH]2)c2ccccc12	39.7µM*	x	-1.2	2.1	-20.3	0.69	x
CCOC(=O)NC(=O)CSc1nnnn1-c1ccc(Cl)cc1	21.2%	i	-0.5	0.7	1.9	0.669	0.6
COCCNC(=S)Nc1ccc2nc(N3CCOCC3)cc(C)c2c1	2.4%	i	-4.4	-49.5	1.8	0.66	1.1
CC1(c2ccccc2Cl)NC(=O)N(CC(=O)c2ccc3c(c2)OCO3)C1=O (stereo not given)	1.1%	x	3.2	-4.0	-5.2	0.616	-5.5
CCn1cc([C@@H]2C[C@H]3CN(Cc4cccc(Cl)c4)C(=O)[C@]34CCCN24)cn1	x	i	-0.2	2.2	5.2	0.686	-1.2
O=C(/C=C/c1ccc(Cl)cc1)NC(=S)Nc1ccc(N2CCOCC2)c(Cl)c1	x	x	u	5.6	-1.2	0.67	x
N#Cc1ccc(Oc2ccc(C(F)(F)F)cc2NC(=O)c2ccc(F)cc2)cc1	u	i	2.4	1.8	-3.2	0.637	0.5
Cc1cc(C)cc(NC(=O)C(OC(=O)c2ccc(O)cc2)c2ccccc2)c1 (stereo not given)	-10.0%	i	x	5.0	0.7	0.639	1.5
CCOc1ccc(CCNC(=O)C2CCCN(S(=O)(=O)N3CCOCC3)C2)cc1OCC (stereo not given)	5.1%	i	5.6	4.2	0.9	0.753	0.3
N/C(=N\OC(=O)c1cccc(Cn2cc(C(F)(F)F)ccc2=O)c1)c1ccccc1	-7.8%	i	-2.8	4.6	-0.8	0.626	-1.0
O=C(COc1ccc(Cl)cc1Cl)N1CCN(c2ccccn2)CC1	-4.3%	i	1.0	-2.6	3.6	0.681	0.5
CCOc1ccc(NC(=O)N2CCC(c3nc4ccccc4o3)CC2)cc1	-5.1%	i	1.1	3.9	-3.9	0.667	-2.6
O=C(COC(=O)c1cc(NS(=O)(=O)c2cccs2)ccc1O)Nc1cc(Cl)ccc1Cl	-8.2%	i	-1.4	-66.9	-0.7	0.74	-0.9
O=C1CC(c2ccccc2)=Nc2ccc(Br)cc2N1	-6.6%	i	-0.8	4.3	-0.4	0.681	0.8

Other records:
SMILES	Vif TR-FRET	FGF22 binding	RanGTP-Impb inh	UCH37 DUB inh	HNF4A DNA FP	E coli growth	MLL AF4-AF9 inh
CCCc1cc(=O)[nH]c(Nc2ccc3c(c2)OCCO3)n1	3.8%	i	-2.7	-0.4	-1.9	0.668	-0.9
COc1ccc([C@@H]2CC(=O)c3c(O)cc(O[C@@H]4OC(CO[C@@H]5OC(C)[C@H](O)[C@H](O)C5O)[C@@H](O)[C@@H](O)C4O)cc3O2)cc1O (stereo not given in full)	x	i	2.9	2.8	-0.1	x	-14.6
N#C/C(=C\c1ccc(Sc2ccc(Cl)cc2)o1)c1nc2ccccc2[nH]1	x	i	x	-11.7	13.7	0.674	-6.8
O=[N+]([O-])c1ccccc1OCCCCN1CCCCC1	4.2%	x	3.5	4.8	3.0	0.724	x
CCCCC(=O)Nc1ccc(F)c(Cl)c1	-2.1%	x	3.0	3.0	1.0	0.684	x
COc1ccc(NC(=O)C2CCC(CNc3c(N4CCCCC4)c(=O)c3=O)CC2)cc1OC (stereo not given)	2.4%&5.2%	i	4.5	4.2&3.9	6.4&-2.7	0.684&0.75	-6.5&-4.2
CN(C1CCS(=O)(=O)C1)S(=O)(=O)c1ccc(C2CCCCC2)cc1 (stereo not given)	4.6%	i	u	5.8	1.3	0.724	-1.9
COc1cc(C(=S)N2CCOCC2)cc(Br)c1OS(=O)(=O)c1ccccc1	x	i	3.1	2.0	2.6	0.673	10.5
CCOC(=O)N1CCN(c2c(NCc3ccc(N(C)C)cc3)c(=O)c2=O)CC1	-0.5%	i	-0.3	8.3	0.8	0.757	-3.8

An excerpt (hit frequency here may not be typical).
